ClpP mod: qHTS Assay for Activators of ClpP. Potency, µM (doses to about 57.5 µM), for the others: at the highest dose activity change, negative = active. hit rate 1.9% among 340,000. purified B. subtilis ClpP, FRET peptide cleavage, 20 min. ATP-dependent Clp protease proteolytic subunit (Bacillus subtilis (strain 168)), P80244. AID 651965, 2013; active = well fitted falling curve with a large enough effect; inconclusive = small, poorly fitted or top-dose-only effect; inactive = no such curve, though single readings can be large or run the other way; note: potency is the fitted concentration of half-maximal effect; the source files actives as falling curves though it sought activators and does not explain the sign; nearly all actives have a fitted effect of over 65% in size; many hits overshoot -100%
Target sequence (P80244 whole entry, looked up): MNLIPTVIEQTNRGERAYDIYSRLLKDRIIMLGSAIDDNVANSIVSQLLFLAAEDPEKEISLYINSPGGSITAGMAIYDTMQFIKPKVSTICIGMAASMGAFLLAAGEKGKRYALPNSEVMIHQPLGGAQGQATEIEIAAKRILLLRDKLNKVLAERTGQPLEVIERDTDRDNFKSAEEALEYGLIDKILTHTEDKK
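FRET quenching reversal measured ClpP activation: 10 microg/mL B. subtilis ClpP at pH 8 with the FRET-FV decapeptide, read at 430 nm after 320 nm excitation. The 20-min minus 0-min signal was scaled between DMSO/no-enzyme wells and ADEP (5.8 microM final).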
Menin MLL FP FL: menin-MLL binding inhibition, fluorescein peptide. Fluorescence polarization, fluorescein-MLL peptide displacement from menin. FP activity change, % at 61.4 µM. 290,000 tested, under 10 active; inconclusive = falling polarisation curve, or a change in total fluorescence; inactive = total fluorescence flat and polarisation flat or rising; no compound was filed as active; the % refers to the polarisation; negative = inhibition;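 note: % of control where 0% means no effect; inhibitors lower the polarisation; unlabelled MLL peptide was the positive control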
Sfp PPTase inh: Sfp phosphopantetheinyl transferase inhibition | Q9F4F7 | hit rate 3.5% among 310,000 | Potency, µM, for the others: max response, negative = inhibition, actives largely listed as inhibitors | Biochemical Sfp PPTase activity, qHTS | AID 1490; active = well fitted inhibition curve with a large enough effect; inconclusive = small, poorly fitted or top-dose-only effect, or another doubt; inactive = no such curve, though single readings can be large or run the other way;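 note: the enzyme is Sfp with the accession as filed and its product quenches rhodamine fluorescence; potency is the fitted concentration of half-maximal effect; 0% = enzyme reaction without inhibitor and -100% = no enzyme wells; top concentration of the series not given in the record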
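Reaction rates are the 30-min fluorescence difference (ex 525, em 598 nm) in wells containing 15 nM Sfp, 5 uM rhodamine-CoA and 12.5 uM BHQ-2-YbbR at pH 7.6 with 10 mM MgCl2.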
PINK1 modulator: changes PINK1 expression | PINK1 immunofluorescence, high-content cytometry, 24 h | Potency, µM (doses to about 76.6 µM), inactives show top-dose activation (PINK1 increase), hits mostly activators | hit rate 0.2% among 410,000 | AID 624263; active = well fitted activation curve with a large enough effect; inconclusive = small, poorly fitted or top-dose-only effect; inactive = flat fitted curve, though single readings scatter; cell line not stated here;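 note: potency is the fitted concentration of half-maximal effect; % of control where 0% means no effect; nearly all actives have a fitted effect of over 65% in size; a mitochondrial uncoupler was the plate control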
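Decision-based qHTS: stable cells, 24 h exposure to five compound concentrations, CCCP as control. Fixed cells stained for PINK1 plus nuclear, mitochondrial and cell markers, cytometer read.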
gsp antagonist: gsp mutant antagonism; gsp-mutant cells, cAMP HTRF, 30 min; control for the full effect not named in the record; Potency, µM (doses to about 76.9 µM), for inactives: at the highest dose activity change, negative = inhibition, most hits filed as inhibitors; hit rate 0.4% among 340,000; AID 624288; active = falling curve of any shape with a large fitted effect; inconclusive = falling curve, mostly with a smaller effect; inactive = flat or rising curve; cell line not stated here;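 note: intracellular cAMP measured with PDE inhibitor Ro 20-1724 present during compound exposure; potency is the fitted concentration of half-maximal effect; % is set by controls: 0 for no effect and ±100 for the full control effect; nearly all actives have a fitted effect of over 65% in size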
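Cells, 2000/well, grown 16–24 h in DMEM 10% FBS with 0.5 mg/ml G418, then compounds plus […] (300 uM addition stock), 30 min at 37C. cAMP read by HTRF (cAMP-d2 and anti-cAMP antibody-K in lysis buffer) after 30 min RT.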
D2 ag: agonists of human D2 dopamine receptor (beta-arrestin) | DiscoveRx PathHunter D2 beta-arrestin, luminescence, 90 min; 100% = 57 uM dopamine signal | hit rate 0.084% among 360,000 | activation, % (test concentration not listed); in the data active = activation above about 40%; inconclusive = about 15% to 40%; inactive = below about 15%; note: compound concentration not given in the record; the text of the record calls up to 30% inactive
Target sequence (P14416 whole entry, looked up): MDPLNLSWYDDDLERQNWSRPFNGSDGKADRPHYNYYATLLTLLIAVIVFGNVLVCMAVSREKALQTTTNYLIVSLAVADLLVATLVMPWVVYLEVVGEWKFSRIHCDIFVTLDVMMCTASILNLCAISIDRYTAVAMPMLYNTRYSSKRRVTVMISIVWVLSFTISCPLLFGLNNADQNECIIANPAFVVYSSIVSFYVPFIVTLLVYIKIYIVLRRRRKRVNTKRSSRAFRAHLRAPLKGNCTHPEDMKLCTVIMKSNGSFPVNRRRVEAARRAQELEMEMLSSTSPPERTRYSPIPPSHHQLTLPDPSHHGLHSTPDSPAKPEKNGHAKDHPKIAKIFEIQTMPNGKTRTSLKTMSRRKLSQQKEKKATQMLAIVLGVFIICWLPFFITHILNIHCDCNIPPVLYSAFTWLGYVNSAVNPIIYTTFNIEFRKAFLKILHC
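DiscoveRx PathHunter D2 beta-arrestin cells (2,100/well) attached overnight, then compound-stimulated 90 min at 37 C in HBSS/10 mM HEPES/0.1% Tween-20 buffer; beta-galactosidase complementation read by luminescence after 1 h at ambient temperature. Dopamine 57 uM final (EC100) as control.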
gsp agonist: gsp mutant agonism | gsp mutant cells, cAMP HTRF, 30 min; control for the full effect not named in the record | Potency, µM (highest dose often 76.9 µM), without a hit: at the top dose activation (cAMP increase), most hits filed as activators | hit rate 0.13% among 340,000; active = well fitted activation curve with a large enough effect; inconclusive = small, poorly fitted or top-dose-only effect, or another doubt; inactive = no such curve, though single readings can be large or run the other way; cell line not stated here;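 note: phosphodiesterase inhibitor Ro 20-1724 added with compounds to block cAMP breakdown; potency is the fitted concentration of half-maximal effect; nearly all actives have a fitted effect of over 60% in size; about a fifth of the inactives were tested at one dose only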
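Cells in DMEM/10% FBS with G418 were pretreated with compounds in DMSO plus […] (300 uM stock) for 30 min at 37C. cAMP was measured by HTRF (cAMP-d2 plus anti-cAMP antibody-K) after 30 min at room temperature.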
Starred values were filed as active, the others as inactive; & = joins results of further samples; [ ] = remark or other dose.

How did CC(NC(=O)CSc1nc2ccccc2c(=O)n1CCCO)c1ccccc1 (centres undefined) do in these assays?
ClpP mod: 0.2%; Menin MLL FP FL: -4.1; Sfp PPTase inh: 9%; PINK1 modulator: -0.9%[38.3 µM]; gsp antagonist: -10%; D2 ag: 3.4; gsp agonist: -55%[inhibitor]

How did Cc1ccc(/C=C2/SC(=S)N(CCC(=O)N3CCN(C)CC3)C2=O)cc1 do in these assays?
Menin MLL FP FL: 2.6; Sfp PPTase inh: -2%; PINK1 modulator: 1.9%; gsp antagonist: 10%; D2 ag: 0.3; gsp agonist: 0%[15.4 µM]

What do the screens show for `CC(C)C(NC(=O)C1CCCCC1)C(=O)Nc1ccncc1` (centres undefined)?
ClpP mod: 2.4%; Menin MLL FP FL: -3.2; Sfp PPTase inh: 17%; PINK1 modulator: 0.2%; gsp antagonist: 4%; D2 ag: -4.3; gsp agonist: -4%

Results for Cc1n[nH]c(=O)c2ccccc12 ?
ClpP mod: 0.4%; Menin MLL FP FL: 7.1; Sfp PPTase inh: 23%; PINK1 modulator: 0.9%; gsp antagonist: -1%; D2 ag: -8.8; gsp agonist: 19%

What do the screens show for `c1ccc(-c2noc(-c3ccc4c(c3)OCO4)n2)nc1`?
ClpP mod: -0.4%; Menin MLL FP FL: 4.0; Sfp PPTase inh: -1%; PINK1 modulator: inconclusive; gsp antagonist: 10%; D2 ag: -1.2; gsp agonist: -15%

How did CCOc1ccccc1NC(=O)CSc1nnc(-c2cccnc2)o1 do in these assays?
PINK1 modulator: 1.9%; gsp antagonist: -2%; D2 ag: -0.7; gsp agonist: 10%[15.4 µM]

What do the screens show for `CCC(=O)OC1(C)C(=O)C=C2C=C(c3ccc(C#N)cc3)OC=C2C1=O` (centres undefined)?
ClpP mod: 0.7%; Menin MLL FP FL: 4.0; Sfp PPTase inh: 1%; PINK1 modulator: -0.4%; gsp antagonist: -13%; D2 ag: 7.0; gsp agonist: 3%

How did NNc1nnc(-c2ccccc2)c(-c2ccccc2)n1 do in these assays?
ClpP mod: -0.5%; Menin MLL FP FL: -1.1; Sfp PPTase inh: -23%; PINK1 modulator: -4.1%[38.3 µM]; gsp antagonist: 2%; D2 ag: -1.4; gsp agonist: -3%

What do the screens show for `COc1ccc(CC(=O)N(Cc2cc3cc(OC)ccc3[nH]c2=O)C(C)C)cc1`?
ClpP mod: 32µM*; Menin MLL FP FL: 3.6; Sfp PPTase inh: 6%; PINK1 modulator: 0.5%; gsp antagonist: -13%; D2 ag: -3.0; gsp agonist: 0%

What do the screens show for `COc1ccc(CCNC(=O)Cc2cccs2)cc1`?
ClpP mod: -3.3%; Menin MLL FP FL: 7.5; Sfp PPTase inh: 4%; PINK1 modulator: -1.0%; gsp antagonist: 12%; D2 ag: -3.0; gsp agonist: 0%

How did COc1ccc(CNc2nc(-c3c(C)noc3C)nc3ccccc23)c(OC)c1 do in these assays?
Menin MLL FP FL: -5.0; Sfp PPTase inh: inconclusive; PINK1 modulator: 1.0%

What do the screens show for `Brc1cc(Br)c2nc3c(cc2c1)CCC3`?
ClpP mod: 0.8%; Menin MLL FP FL: 14; Sfp PPTase inh: 1%; PINK1 modulator: 0.5%; gsp antagonist: 26%; D2 ag: -1.0; gsp agonist: inconclusive

How did Cn1c2ccccc2c2cnn(CC(=O)O)c(=O)c21 do in these assays?
ClpP mod: 32µM*; Menin MLL FP FL: 1.5; Sfp PPTase inh: 17%; PINK1 modulator: 2.0%; gsp antagonist: 8%; D2 ag: -3.5; gsp agonist: -35%[inhibitor]

Results for CCc1ccc(OCc2n[nH]c(=S)n2C(C)CCCC(C)C)cc1 (centres undefined) ?
ClpP mod: 3.0%; Menin MLL FP FL: -2.6; Sfp PPTase inh: 28%; PINK1 modulator: 5.3%; gsp antagonist: 0%; D2 ag: 13; gsp agonist: -29%

Results for CSc1cccc(NC(=S)N2CCC(N(C)C3CCCCC3C)CC2)c1 (centres undefined) ?
Menin MLL FP FL: -10; Sfp PPTase inh: 10%; PINK1 modulator: 0.1%; gsp antagonist: 4%; D2 ag: -14; gsp agonist: 10%[15.4 µM]

How did CCN(C(=O)C(C)Sc1ccc(S(=O)(=O)N2CCOCC2)cn1)c1ccccc1 (centres undefined) do in these assays?
ClpP mod: -0.4%; PINK1 modulator: 2.0%; gsp antagonist: 2%; D2 ag: 1.6; gsp agonist: -1%

Results for O=C(Nc1ccccc1)c1cnc[nH]1 ?
ClpP mod: -4.5%; Menin MLL FP FL: 0.6; Sfp PPTase inh: -2%; PINK1 modulator: -1.1%; gsp antagonist: 15%; D2 ag: 2.1; gsp agonist: -5%

How did COc1ccc(NC(C)=O)cc1NS(=O)(=O)c1ccc2c(c1)OCCO2 do in these assays?
ClpP mod: -2.0%; PINK1 modulator: -0.3%; gsp antagonist: 9%; D2 ag: -2.6; gsp agonist: -17%

What do the screens show for `O=C(CSc1ccccc1Cl)N1CCOCC1`?
ClpP mod: -1.4%; Menin MLL FP FL: -1.3; Sfp PPTase inh: 2%; PINK1 modulator: 1.2%; gsp antagonist: 4%; D2 ag: 1.0; gsp agonist: -11%

How did COc1ccccc1C(=O)NNC(=O)c1ccccc1F do in these assays?
Menin MLL FP FL: 2.0; Sfp PPTase inh: 7%; PINK1 modulator: 1.5%; gsp antagonist: -1%; D2 ag: -0.7; gsp agonist: 13%[15.4 µM]

Results for COc1cccc(NC(=O)c2cc([N+](=O)[O-])ccc2NCc2cccnc2)c1 ?
ClpP mod: 42%; Menin MLL FP FL: 4.8; Sfp PPTase inh: 9%; PINK1 modulator: 3.1%; gsp antagonist: -18%; D2 ag: -1.9; gsp agonist: -9%

Results for O=C(NS(=O)(=O)c1ccccc1)c1ccccc1O ?
ClpP mod: -14%; Menin MLL FP FL: -3.3; Sfp PPTase inh: -8%; PINK1 modulator: 0.2%; gsp antagonist: 8%; D2 ag: -1.6; gsp agonist: 15%

How did CCN(CC)c1ccc(/C=N/NC(=O)Cc2cccs2)c(O)c1 do in these assays?
ClpP mod: 28µM*; Menin MLL FP FL: 2.1; Sfp PPTase inh: 21%; PINK1 modulator: -0.7%; gsp antagonist: -5%; D2 ag: -0.3; gsp agonist: 3%

How did Cc1cc([N+](=O)[O-])nn1CC(=O)NCCCn1ccnc1 do in these assays?
Menin MLL FP FL: 2.2; Sfp PPTase inh: 15%; PINK1 modulator: -1.7%; gsp antagonist: 5%; D2 ag: -2.4; gsp agonist: -4%

Results for COc1cc(/C=C/C(=O)NCc2cccnc2)cc(OC)c1OC ?
ClpP mod: 25µM*; Menin MLL FP FL: -0.4; Sfp PPTase inh: -7%; PINK1 modulator: 0.3%; gsp antagonist: 14%; D2 ag: -2.2; gsp agonist: 11%

How did NCCCCCc1nnc(SCC(=O)c2ccc(Cl)cc2)o1 do in these assays?
ClpP mod: 0.8%; Menin MLL FP FL: 4.6; Sfp PPTase inh: 50µM*; PINK1 modulator: -0.9%; gsp antagonist: 9%; D2 ag: -3.9; gsp agonist: 7%

How did COc1cc(C(=O)Nc2ccc3c(c2)OCCO3)ccc1OC(C)C do in these assays?
ClpP mod: -2.0%; Menin MLL FP FL: -5.5; Sfp PPTase inh: -3%; PINK1 modulator: -1.5%; gsp antagonist: -5%[15.4 µM]; D2 ag: 1.5; gsp agonist: 16%

Results for O=C(COc1cc2oc(=O)cc(-c3ccccc3)c2cc1Cl)NCC1CCC(C(=O)O)CC1 (centres undefined) ?
ClpP mod: -16%; Menin MLL FP FL: 5.0; Sfp PPTase inh: 3%; PINK1 modulator: 0.8%; gsp antagonist: -11%; D2 ag: -2.0; gsp agonist: -2%

How did CCOC(=O)C1=C(COC(=O)c2ccc([N+](=O)[O-])o2)NC(=O)NC1C (centres undefined) do in these assays?
ClpP mod: 1.6%; PINK1 modulator: -0.4%; gsp antagonist: -12%; D2 ag: 6.8; gsp agonist: 35%

What do the screens show for `Cc1cc(NS(=O)(=O)c2ccc(NC(=O)c3cnc(Cl)c(Cl)c3)cc2)nc(C)n1`?
ClpP mod: 0.0%; PINK1 modulator: -0.6%; gsp antagonist: -10%; D2 ag: -2.3; gsp agonist: -6%

Results for CCOC(=O)N1CCC(NC(=O)c2cc(S(=O)(=O)N(CC)CC)ccc2F)CC1 ?
ClpP mod: 1.4%; Menin MLL FP FL: 2.7; Sfp PPTase inh: 21%; PINK1 modulator: 3.2%[38.3 µM]; gsp antagonist: -6%; D2 ag: -3.4; gsp agonist: -3%

Results for CCCCNC(=O)Nc1c(C(=O)OCC)[nH]c2ccccc12 ?
ClpP mod: -19%; Menin MLL FP FL: -2.1; Sfp PPTase inh: -21%; PINK1 modulator: -0.9%; gsp antagonist: 4%; D2 ag: -1.9; gsp agonist: -3%

What do the screens show for `Cn1cc(CCC(=O)NCc2ccc(Cl)cc2)c2ccccc21`?
ClpP mod: -1.5%&-8.2%; Menin MLL FP FL: 1.0; Sfp PPTase inh: -5%; PINK1 modulator: -0.9%&-1.1%; gsp antagonist: -1%; D2 ag: 0.6; gsp agonist: inconclusive

Results for CSc1ncccc1C(=O)OCC(=O)N(CC(C)C)C1CCS(=O)(=O)C1 (centres undefined) ?
ClpP mod: -1.0%; Menin MLL FP FL: 6.5; Sfp PPTase inh: -12%; PINK1 modulator: -5.5%; gsp antagonist: -7%; D2 ag: -1.4; gsp agonist: 24%

How did Cc1ccc(SCn2nnc3ccccc3c2=O)c(C)c1 do in these assays?
Menin MLL FP FL: 0.6; Sfp PPTase inh: -12%; PINK1 modulator: -0.6%; gsp antagonist: -8%; D2 ag: 2.2; gsp agonist: -1%[15.4 µM]

What do the screens show for `CCOc1cc(/C=C/c2cc(C(=O)O)c3ccccc3n2)ccc1O`?
ClpP mod: -5.4%; Menin MLL FP FL: -0.2; Sfp PPTase inh: -3%; PINK1 modulator: 0.4%; gsp antagonist: 2%; D2 ag: 0.0; gsp agonist: inconclusive
